FGF22 binding – shifts melting point of recombinant human FGF22 | Q9HCT0 | recombinant FGF22 thermal shift, SYPRO orange fluorescence; percent of sucrose octasulfate shift, DMSO zero | calls only at 9.99 µM | 340,000 tested, 1.5% active;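 active means melting point raised past a set limit in the mean and every replicate; three in four hits are not shown here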
Target sequence (Q9HCT0 whole entry, looked up): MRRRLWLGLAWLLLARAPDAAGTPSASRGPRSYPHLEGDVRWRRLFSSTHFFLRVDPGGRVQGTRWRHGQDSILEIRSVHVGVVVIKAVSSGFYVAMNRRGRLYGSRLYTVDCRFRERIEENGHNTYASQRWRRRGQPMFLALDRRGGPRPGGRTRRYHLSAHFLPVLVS
AF4-AF9 inh – blocks AF4 peptide binding to human AF9 | P42568 | AlphaScreen, biotin-AF4 peptide binding to FLAG-AF9 | inhibition, % at 10 µM | 350,000 tested, 0.47% active | AID 651704;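 active means every replicate reaching a set inhibition limit, whatever the replicate mean, cut at about 25% in these data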;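 further: 0% = plate neutral control median and 100% = total signal loss; the record names both 10 and 1 µM as test concentration; the first replicate is given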
Target sequence (P42568 whole entry, looked up): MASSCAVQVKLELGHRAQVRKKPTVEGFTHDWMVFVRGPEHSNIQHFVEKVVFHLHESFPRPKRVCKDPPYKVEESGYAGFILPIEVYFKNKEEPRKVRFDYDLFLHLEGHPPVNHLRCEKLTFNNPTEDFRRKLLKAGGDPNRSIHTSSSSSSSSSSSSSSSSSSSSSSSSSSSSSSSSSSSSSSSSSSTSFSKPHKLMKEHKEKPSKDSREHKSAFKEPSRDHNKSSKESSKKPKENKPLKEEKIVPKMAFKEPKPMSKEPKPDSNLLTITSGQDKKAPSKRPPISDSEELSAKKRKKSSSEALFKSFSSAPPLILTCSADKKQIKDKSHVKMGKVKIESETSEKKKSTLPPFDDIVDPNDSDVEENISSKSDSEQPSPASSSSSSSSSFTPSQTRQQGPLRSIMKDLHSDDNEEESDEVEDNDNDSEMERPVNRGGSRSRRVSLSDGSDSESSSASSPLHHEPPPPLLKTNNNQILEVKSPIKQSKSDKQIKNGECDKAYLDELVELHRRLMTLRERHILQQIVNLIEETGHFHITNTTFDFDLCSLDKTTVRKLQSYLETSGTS
Ecoli rRNA inh – inhibits bacterial ribosomal RNA function over humanized ribosomes; AID 720706; GFP signal change (wild-type ribosome), % (test concentration not listed); E. coli WT GFP vs humanized-ribosome RFP mutants, fluorescence, 24 h; active compounds read low; DMSO median 0, no signal -100; 350,000 tested, 1.6% active;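 active means significant combined selectivity score with lowered wild-type GFP, culture density cut under 30%, mutant RFP and density less affected; inactive means any of these conditions unmet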; further: one replicate is shown; some compounds called inactive have numbers as strong as hits
Ecoli rRNA inh OD600 – also measured in Ecoli rRNA inh; calls as there; OD600 change, %; measured here: OD600 growth;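 optical density of the mix in the first replicate; 0 = DMSO median and -100 = no signal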
Ecoli rRNA inh RFP – second read-out of Ecoli rRNA inh, no call of its own (marks repeat the call); RFP signal change, %; measured here: RFP humanized mutant strains;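 first replicate; 0 = DMSO median and -100 = no signal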
The depositor's hits bear a star; i = inactive; + = active, no number; & = joins results of further samples. Some of the compounds tested; the hit share may differ from the screen's.

SMILES	FGF22 binding	AF4-AF9 inh	Ecoli rRNA inh	Ecoli rRNA inh OD600	Ecoli rRNA inh RFP
CO[C@@H]1CN(C)C(=O)c2ccc(NC(=O)C3CCOCC3)cc2OC[C@@H](C)N(C(=O)C2CCOCC2)C[C@H]1C	i	-8.9	2	7	-1.8
C[C@@H]1CN([C@@H](C)CO)C(=O)c2cc(NC(=O)c3ccncc3)ccc2O[C@H]1CN(C)S(=O)(=O)c1ccc(Cl)cc1	i	-1.1	-4	-3	-0.5
COc1ccc(S(=O)(=O)Nc2ccc3c(c2)C(=O)N([C@@H](C)CO)C[C@@H](C)[C@H](CN(C)S(=O)(=O)c2ccc(Cl)cc2)OCCCC[C@@H](C)O3)cc1	i	-2.1	-5	0	0.3
C[C@@H]1CN([C@H](C)CO)C(=O)Cc2cc(NC(=O)Nc3cccc4ccccc34)ccc2O[C@H]1CN(C)CC1CC1	i	-1.8	0	5	5.6
CCCSC1=N/C(=C\c2ccc([N+](=O)[O-])o2)C(=O)S1	i	1.0	6	-1	5.4
CCOc1ccc(CCN2C(=O)C(=O)N([C@@H](Cc3ccc(O)cc3)CN3CCC[C@H]3CN3C(=O)C(=O)NC[C@@H]3Cc3ccc(O)cc3)C[C@@H]2Cc2ccccc2)cc1	i	1.3	-16	-12	4.9
CCCc1cn(CC[C@@H]2CC[C@H](NC(=O)CCN3CCCCC3)[C@H](CO)O2)nn1	i	-0.6	1	3	0.8
CCc1nc2ccccc2n(CCOCCn2c(=O)c(CC)nc3ccccc32)c1=O	i	-44	16	21	-1.1
C/C=C/c1ccc([C@@H]2[C@H](CO)N(C(=O)c3cnccn3)C23CN(C(C)=O)C3)cc1	i	-2.0	-2	10	-4.2
CCCn1cnnc1CNC(=O)[C@H]1O[C@@H](n2ccc(N)nc2=O)[C@H](O)[C@@H]1O	i	-1.8	2	-4	-1.8
CCCCOc1ccc(N2C(=O)C(C)CNC2=S)cc1 (configuration not stated)	i	-0.1	0	7	0.6
C[C@@H]1CN([C@@H](C)CO)S(=O)(=O)c2ccc(C3=CCCCC3)cc2O[C@H]1CN(C)Cc1cncnc1	i	8.4	-18	-43	-4.7
CN(C(=O)c1cccc(NC(=O)Cc2ccc(NC(=O)C3CCCN(C(=O)CCc4ccccc4)C3)cc2)c1)C1CCCC1 (configuration not stated)	i	-3.7	-1	-7	1.7
C[C@H](CO)N1C[C@H](C)[C@@H](CN(C)C(=O)Nc2ccccc2)Oc2ccc(NS(=O)(=O)c3ccc(F)cc3)cc2CC1=O	i	-1.0	0	-7	0.1
CCc1nc2c(OCc3ccc(C#N)cc3)cccn2c1N(C)C(=O)c1ccco1	i	-0.7	-3	2	1.1
CS(=O)(=O)N1[C@@H]2c3ccc(-c4ccccc4)c(=O)n3C[C@H]1[C@H](CO)[C@H]2C(=O)NCC1CC1	i	-0.2	4	4	-3.3
Cc1ccc(S(=O)(=O)N[C@H]2CC[C@@H](CC(=O)NCc3ccccc3F)O[C@H]2CO)cc1	i	1.2	-1	1	-6.2
COc1ccc(NC(=O)Nc2ccc3c(c2)C(=O)N([C@@H](C)CO)C[C@H](C)[C@@H](CN(C)Cc2ccc4c(c2)OCO4)O3)cc1	i	8.6	3	-14	2.3
Cc1noc(C)c1NC(=O)N(C)C[C@@H]1Oc2ccc(N(C)C)cc2CC(=O)N([C@@H](C)CO)C[C@@H]1C	i	-2.3	-2	-4	-3.1
CC(C)C[C@H]1COCc2cn(nn2)CC[C@H](Cc2ccccc2)C(=O)N1	i	-0.7	2	7	-4.8
Cc1ccc(S(=O)(=O)N[C@H]2CC[C@@H](CC(=O)NCc3ccc(Cl)c(Cl)c3)O[C@@H]2CO)cc1	i	1.1	-10	-3	3.3
COc1ccc(N2CCN(C(=O)COC(=O)c3nc(Cl)ccc3Cl)CC2)cc1	i	1.9	-5	-8	8.9
CC(=O)N(C)C[C@H]1Oc2ncc(-c3ccc(C#N)cc3)cc2C(=O)N([C@H](C)CO)C[C@@H]1C	i	-4.6	1	10	-1.5
C[C@@H]1CN([C@@H](C)CO)C(=O)c2cc(-c3cccc(C#N)c3)cnc2O[C@@H]1CN(C)Cc1ccncc1	i	-3.1	-4	-1	-2.0
Cc1ccc(S(=O)(=O)N(C)C[C@@H]2Oc3ncc(-c4ccccc4)cc3C(=O)N([C@H](C)CO)C[C@H]2C)cc1	i	-4.6	-8	-3	2.3
More structures:
SMILES	FGF22 binding	AF4-AF9 inh	Ecoli rRNA inh	Ecoli rRNA inh OD600	Ecoli rRNA inh RFP
COc1ccc(S(=O)(=O)N(C)C[C@H]2Oc3ccc(NC(=O)CCCN(C)C)cc3C(=O)N([C@@H](C)CO)C[C@H]2C)cc1	i	-0.7	-2	0	-2.9
COCC#Cc1ccc([C@@H]2[C@@H](CO)N3CCCCN(C(=O)NC4CCCC4)C[C@H]23)cc1	i	-1.5	0	3	-1.3
CC=Cc1ccc2n(c1=O)C[C@H]1N[C@@H]2[C@@H](C(=O)NCc2ccc3c(c2)OCO3)[C@@H]1CO (mixture of isomers)	i	1.7	2	5	1.2
CC12CCC(=O)N1C(C(=O)Oc1cccc(F)c1)CS2 (configuration not stated)	i	-2.9	12	20	2.1
COc1ccc(OC)c(-c2nn(-c3ccccc3)cc2C(=O)NC2(C)CCS(=O)(=O)C2)c1 (configuration not stated)	i	1.0	1	5	0.9
COc1ccc(OC)c(C(=O)COC(=O)c2[nH]c(C)c(C(C)=O)c2C)c1	i	1.8	2	2	-0.4
CCCC(=O)Nc1ccc2c(c1)C(=O)N(C)[C@H]1CC[C@@H](CC(=O)NC3CCCC3)O[C@H]1CO2	i	-0.9	-2	-4	-0.9
CCC(=O)N1CC2(C1)[C@H](c1ccc(-c3cccc(C)c3)cc1)[C@@H](CO)N2S(C)(=O)=O	+	-1.3	-2	-1	2.9
COc1ccc(C(CNC(=O)c2cccc(S(=O)(=O)N3CCCc4ccccc43)c2)N(C)C)cc1 (configuration not stated)	i	15	-64	-77	-21
O=C(NC1CCCCC1)C(c1ccnc2ccccc12)N1CCOCC1 (configuration not stated)	i	0.6	-3	3	-4.9
COc1ccc(C(=O)Nc2ccc3c(c2)OC[C@@H](C)N(C(C)=O)C[C@H](C)[C@@H](OC)CN(C)C3=O)cc1	i	-0.9	-2	0	-0.5
C[C@@H]1CN([C@@H](C)CO)C(=O)c2cc(C#CCN(C)C)cnc2O[C@@H]1CN(C)C(=O)Cc1ccccc1	i	-1.9	4	7	-2.8
COc1cc(C(C)=O)ccc1OC(=O)N1CCOCC1	i	-0.5	10	5	0.7
C[C@H](CO)N1C[C@H](C)[C@H](CN(C)C(=O)NC2CCCCC2)Oc2ccc(NC(=O)Cc3ccccc3)cc2C1=O	i	-2.0	-2	-1	-2.2
CCC(=O)N1CCCCN2[C@H](CO)[C@@H](c3ccc(C#Cc4ccccc4F)cc3)[C@H]2C1	+	1.9	-57	-74	-16
C[C@H](CO)N1C[C@H](C)[C@@H](CN(C)C(=O)CCC(F)(F)F)OCCCC[C@H](C)Oc2ccc(NC(=O)NC3CCCCC3)cc2C1=O	i	-3.2	-3	-5	0.9
COCC(=O)N(C)C[C@@H]1Oc2ncc(C#Cc3ccc(F)cc3)cc2C(=O)N([C@@H](C)CO)C[C@@H]1C	i	-1.7	-2	10	-2.3
C[C@@H]1CN([C@@H](C)CO)C(=O)CCCn2cc(nn2)CO[C@H]1CN(C)C(=O)Nc1ccc(N2CCN(C)CC2)cc1	i	11&5.3	1&9	6&8	-4.9&8.5
Nn1c(SCC(=O)N2CCCC2)nnc1-c1cccs1	i	-0.9	6	-12	-0.1
Cc1ccc(S(=O)(=O)Nc2cccc3c2O[C@@H](CN(C)C(=O)Nc2ccc4c(c2)OCO4)[C@H](C)CN([C@H](C)CO)C3=O)cc1	i	-0.9	2	-3	2.8
C[C@@H]1CN([C@H](C)CO)C(=O)c2cc(NC(=O)CCC(F)(F)F)ccc2O[C@H]1CN(C)C(=O)Nc1ccc2c(c1)OCO2	i	-3.2	0	-2	-1.5
COc1ccc(NC(=O)N(C)C[C@@H]2OCCCC[C@@H](C)Oc3ccc(NS(C)(=O)=O)cc3C(=O)N([C@H](C)CO)C[C@@H]2C)cc1	i	-4.5&-1.1	-2&19	0&13	-4.6&4.2
O=[N+]([O-])c1ccc(CN2CC(N3CCCC3)CS2(=O)=O)cc1 (configuration not stated)	i	-0.4	2	12	-1.9
Cc1ccccc1-c1cnc2c(c1)C(=O)N([C@@H](C)CO)C[C@H](C)[C@H](CN(C)C(=O)c1ccc(F)cc1)O2	i	-5.0	0	-6	4.8
Cc1ccc(NC(=O)c2ncn(CC(=O)NCC(C)c3ccccc3)n2)cc1C (configuration not stated)	i	-50	-23	-29	-2.2

Of the compounds above, these have a nitro group on carbon.
SMILES	FGF22 binding	AF4-AF9 inh	Ecoli rRNA inh	Ecoli rRNA inh OD600	Ecoli rRNA inh RFP
CCCSC1=N/C(=C\c2ccc([N+](=O)[O-])o2)C(=O)S1	i	1.0	6	-1	5.4
O=[N+]([O-])c1ccc(CN2CC(N3CCCC3)CS2(=O)=O)cc1 (configuration not stated)	i	-0.4	2	12	-1.9

Structural class: the entries above containing a CF3 group.
SMILES	FGF22 binding	AF4-AF9 inh	Ecoli rRNA inh	Ecoli rRNA inh OD600	Ecoli rRNA inh RFP
C[C@H](CO)N1C[C@H](C)[C@@H](CN(C)C(=O)CCC(F)(F)F)OCCCC[C@H](C)Oc2ccc(NC(=O)NC3CCCCC3)cc2C1=O	i	-3.2	-3	-5	0.9
C[C@@H]1CN([C@H](C)CO)C(=O)c2cc(NC(=O)CCC(F)(F)F)ccc2O[C@H]1CN(C)C(=O)Nc1ccc2c(c1)OCO2	i	-3.2	0	-2	-1.5

(next part)
SMILES	FGF22 binding	AF4-AF9 inh	Ecoli rRNA inh	Ecoli rRNA inh OD600	Ecoli rRNA inh RFP
C[C@@H]1CN([C@@H](C)CO)C(=O)Cc2cc(NC(=O)Nc3ccc(F)cc3)ccc2O[C@H]1CN(C)S(C)(=O)=O	i	0.9	1	3	-1.2
Cc1ccc(S(=O)(=O)Nc2ccc3c(c2)CC(=O)N([C@H](C)CO)C[C@H](C)[C@H](CN(C)Cc2ccc(-c4ccccc4)cc2)O3)cc1	i	1.4	0	-4	1.7
C[C@@H]1CN([C@H](C)CO)C(=O)c2cccc(NC(=O)Nc3ccc(F)cc3)c2O[C@@H]1CN(C)Cc1ccc(Cl)c(Cl)c1	i	3.6	-7	-52	-1.8
CC(C)NC(=O)N(C)C[C@@H]1Oc2c(NS(=O)(=O)c3ccccc3)cccc2C(=O)N([C@@H](C)CO)C[C@H]1C	i	-0.3	0	-18	-0.9
O=C(c1cnccn1)N1CC(=O)N2[C@H](CO)[C@H](c3ccc(-c4cccc(F)c4)cc3)[C@H]2C1	i	0.9	-1	-2	-1.0
COC(=O)c1cc2c(c3c4cc(C)ccc4n(S(=O)(=O)c4ccc(C)cc4)c13)C(=O)N(Cc1ccccc1OC)C2	i	-1.3	12	6	3.6
Cc1noc(C)c1S(=O)(=O)N(C)C[C@@H]1Oc2ccc(NC(=O)C3CC3)cc2CC(=O)N([C@@H](C)CO)C[C@@H]1C	i	-1.6	3	5	-1.8
OC(c1cccc(CN2CCCCC2)c1)c1ncc(-c2cccc3ccccc23)[nH]1 (configuration not stated)	i	19	4	2	12
Cc1ccc2c(c1)c1c3n2CCN(CCC#N)C3CCC1 (configuration not stated)	i	4.7	-9	-33	-4.5
CO[C@H]1CN(C)C(=O)c2cc(NC(=O)C3CCC3)ccc2OC[C@H](C)N(Cc2ccccn2)C[C@@H]1C	i	1.5	0	6	1.0
Cc1cccc(NC(=O)COC(=O)CN2C(=O)c3ccccc3C2=O)c1	i	-2.5	5	6	-1.1
C[C@H](CO)N1C[C@H](C)[C@H](CN(C)Cc2ccc(-c3ccccc3)cc2)Oc2ccc(N(C)C)cc2C1=O	i	49*	-3	-41	26
CC(C)NC(=O)N(C)C[C@H]1Oc2ncc(C#CC3(O)CCCC3)cc2C(=O)N([C@@H](C)CO)C[C@@H]1C	i	-2.6	-4	1	-2.3
COc1cccc(S(=O)(=O)N[C@@H]2CC[C@@H](CCn3cc(-c4ccccc4OC)nn3)O[C@H]2CO)c1	i	2.7	-1	-18	2.1
CCN1[C@@H]2c3ccc(-c4cccc(C(=O)N(C)C)c4)c(=O)n3C[C@@H]2[C@@H](CO)[C@@H]1C(=O)N(C)C	i	0.6	0	12	0.0
C[C@H](CO)N1C[C@H](C)[C@@H](CN(C)Cc2cccnc2)Oc2cc(C#CC3CCCCC3)ccc2S1(=O)=O	i	5.8	-4	3	2.2
C[C@@H]1CN([C@@H](C)CO)C(=O)Cc2cc(NC(=O)Nc3cccc4ccccc34)ccc2O[C@@H]1CN(C)S(=O)(=O)c1cn(C)cn1	i	0.3	-3	-3	0.9
CO[C@@H]1CN(C)C(=O)c2cc(NC(=O)C3CC3)ccc2OC[C@@H](C)N(Cc2nccs2)C[C@@H]1C	i	-0.2	-6	-5	0.9

An excerpt from above in order of SMILES length, highest first.
SMILES	FGF22 binding	AF4-AF9 inh	Ecoli rRNA inh	Ecoli rRNA inh OD600	Ecoli rRNA inh RFP
CO[C@H]1CN(C)C(=O)c2cc(NC(=O)C3CCC3)ccc2OC[C@H](C)N(Cc2ccccn2)C[C@@H]1C	i	1.5	0	6	1.0
OC(c1cccc(CN2CCCCC2)c1)c1ncc(-c2cccc3ccccc23)[nH]1 (configuration not stated)	i	19	4	2	12
Cc1cccc(NC(=O)COC(=O)CN2C(=O)c3ccccc3C2=O)c1	i	-2.5	5	6	-1.1
